Assay outcomes deposited in PubChem BioAssay by several laboratories.
ugtP null kill: growth inhibition of S. aureus ugtP deletion strain. growth inhibition, % (concentration not given with the values). hit rate 0.54% among 330,000. AID 1259309. S. aureus RN4220 ugtP deletion, OD600 growth, 16 h; some inactives read as strong as hits;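 active = z-score under -3 and OD600 up to 0.15 on both plates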;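 note: plate controls were untreated wells for no effect and antibiotic for full effect; wells of about 80 µL received 100 nL stock; the first replicate is given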
Sa RN4220 lethal: S. aureus RN4220 growth inhibition; OD600, 16 h; hit rate 0.33% among 330,000; inhibition, % (test concentration not listed); AID 1259311;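 active = z-score of -3 or lower and OD600 up to 0.18 on both plates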;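 note: plate controls were untreated cells for no effect and reference antibiotic for full effect; stock transfer was 100 nL into about 80 µL; one replicate is shown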
PrP 5UTR inh: suppresses PrP 5' UTR mRNA reporter expression | cell-based PrP 5' UTR mRNA reporter, plate reader | inhibition, % (concentration not given with the values) | hit rate 0.35% among 340,000;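 active = every replicate at 50% or more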;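 note: 0 = median of the neutral control wells; tested in H4 reporter cells; numbers are from one replicate; inactives centre near -14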
Bead autofluor: flagged as autofluorescent in microsphere protease counterscreen. fluorescence intensity (test concentration not listed). AID 624483. hit rate 3.1% among 360,000. compound autofluorescence counterscreen, microsphere flow cytometry; hits give high values;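 active = at least 3 SD above the mean of all compounds, about 16000 in these data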;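 note: 100 nL of 1 mM stock went into each well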
Mtb hypoxia inh: reduces hypoxia-regulated biosensor signal in M. tuberculosis. M. tuberculosis hypoxia-regulated fluorescent reporter, fluorescence. fluorescence inhibition, % (concentration not given with the values). hit rate 0.1% among 300,000;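 active = 35 to 45% if threefold the growth effect, above 45% if 1.5-fold the growth effect; inactive = the rest, general growth blockers included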;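 note: wells of about 50 µL received 100 nL stock; 0% = vehicle wells and 100% = reference inhibitor wells; whole bacteria with a GFP reporter of the hypoxia response; strong numbers were not always called active; many hits fall short of the cut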
BJeLR lethal: kills HRASV12-expressing BJeLR cells | hit rate 0.17% among 300,000 | BJeLR (HRASV12) viability, CellTiter-Glo ATP luminescence, 48 h; reference of the scale not given here | inhibition, % (no concentration beside the values);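 active = replicate mean above 50%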;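 note: 50 nL library stock added to about 25 µL; numbers are from one replicate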
Mtb hypoxia inh growth: further read-out of Mtb hypoxia inh, marked with its call; growth inhibition, %; measured here: M. tuberculosis growth (absorbance);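 0% = vehicle and 100% = reference antibiotic; read after six days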
* marks the source's active call; other numbers are inactive results; . = no result given. Rows are unselected; overall some 4% were active at least once.

SMILES	ugtP null kill	Sa RN4220 lethal	PrP 5UTR inh	Bead autofluor	Mtb hypoxia inh	Mtb hypoxia inh growth	BJeLR lethal
O=C(C1CCCCC1)N1CCN(S(=O)(=O)c2cccc([N+](=O)[O-])c2)CC1	12	2.8	-1	5380	4	1	-1
O=C(NCc1ccco1)C1CCN(C(=O)c2cc3sccc3n2Cc2ccc(Cl)cc2)CC1	6	-1.8	-10	7619	-2	-2	3
Cc1nnc(NC(=O)CSc2nnc(CNC(=O)c3ccc(S(=O)(=O)N(C)C)cc3)o2)s1	4	0.9	-19	3789	10	1	-5
COc1ccc(OC)c(N(CC(=O)NN=C2CCN(C)CC2)S(=O)(=O)c2ccccc2)c1	-5	1.1	-58	3930	3	-1	0
CCCCOC(=O)Nc1nnc(CCc2ccccc2)s1	3	13	-22	7762	11	4	-2
CCOC(=O)Cc1nnc(NC(=O)c2cccc(OCC)c2)s1	-1	-4.0	0	4149	.	.	-6
Cc1cc(C)c(C#N)c(SCC(=O)c2cc(C)n(CCc3ccccc3)c2C)n1	-3	-4.5	-23	2484	.	.	-1
Cc1ccc(-c2cc(C(=O)N/N=C/c3c[nH]c4ccccc34)[nH]n2)cc1	.	.	-49	3823	.	.	21
COc1ccc(N(CC(=O)N2CCC(C)CC2)S(=O)(=O)c2c(C)nn(C)c2C)cc1	-7	-10	-2	4573	1	4	-1
O=C(Nc1ccc(S(=O)(=O)N2CCCC2)cc1Cl)C1=COCCO1	3	6.2	-24	10046	6	2	-2
Cc1nc(C(=O)N2CCCC(N3CCN(c4ccccc4C)CC3)C2)cs1 (stereo not given)	6	0.2	-25	5858	7	-15	2
CN(C)c1cc[n+](CC(=O)c2ccc(OC(F)F)cc2)cc1	5	5.1	-6	4259	4	7	13
COc1ccc(-n2c(CN3CCN(c4ccccc4OC)CC3)nc3ccc([N+](=O)[O-])cc3c2=O)c(OC)c1	1	1.1	-16	3686	-9	3	14
COc1ccnc(N=CNOCc2cccc(Cl)c2Cl)c1C#N	-1	1.7	-41	2294	.	.	6
CC(C)(CNC(=O)c1ccc(NS(=O)(=O)c2ccc(F)cc2)cc1)N1CCOCC1	2	-2.6	-4	4739	-1	0	-2
Cc1cccc(C)c1OCc1nnc(SCC(=O)Nc2nccs2)n1-c1ccccc1	2	7.4	-10	14756	2	3	2
COc1ccc(-c2nn(-c3ccccc3)cc2/C=N/NS(=O)(=O)c2ccccc2)cc1	.	.	33	2660	.	.	2
CC(=NNC(=O)c1cccs1)c1cccnc1	-5	5.7	.	.	5	10	.
CC(NC(=O)Cn1c(NCCO)nc2ccccc21)c1ccccc1 (stereo not given)	-1	1.6	-10	3092	.	.	-6
O=C(NC(=S)Nc1ccc(S(=O)(=O)N2CCCCCC2)cc1)c1cccs1	80	5.0	-11	2608	10	8	0

3 compounds out of the list, arranged by SMILES length, ascending.
SMILES	ugtP null kill	Sa RN4220 lethal	PrP 5UTR inh	Bead autofluor	Mtb hypoxia inh	Mtb hypoxia inh growth	BJeLR lethal
COc1ccnc(N=CNOCc2cccc(Cl)c2Cl)c1C#N	-1	1.7	-41	2294	.	.	6
CN(C)c1cc[n+](CC(=O)c2ccc(OC(F)F)cc2)cc1	5	5.1	-6	4259	4	7	13
Cc1nc(C(=O)N2CCCC(N3CCN(c4ccccc4C)CC3)C2)cs1 (stereo not given)	6	0.2	-25	5858	7	-15	2

Quoted from the listing.
ugtP null kill with O=C(NC(=S)Nc1ccc(S(=O)(=O)N2CCCCCC2)cc1)c1cccs1 reads 80
ugtP null kill with Cc1cccc(C)c1OCc1nnc(SCC(=O)Nc2nccs2)n1-c1ccccc1 reads 2

Other compounds.
SMILES	ugtP null kill	Sa RN4220 lethal	PrP 5UTR inh	Bead autofluor	Mtb hypoxia inh	Mtb hypoxia inh growth	BJeLR lethal
CC(=O)c1cc(C)ccc1OC(=O)c1ccco1	1	2.6	-19	9202	-4	-3	-6
Cc1onc(-c2ccccc2)c1C(=O)N/N=C/c1c(F)cccc1Cl	.	.	2	5243	.	.	0
Cc1cccc(N2CCN(C(=O)CCCOc3ccccc3)CC2)c1C	-6	-0.1	-68	4886	2	8	1
CC(C(=O)NC1CCCCC1)N1C(=O)C2C3C=CC(C3)C2C1=O (stereo not given)	5	3.7	-21	6348	-4	1	8
N=C(c1ccc([N+](=O)[O-])cc1)N1CCCCC1	-5	1.3	-4	1934	6	-1	1
COc1ccc(C(C)=O)cc1COC(=O)c1cc(C)nc2ccccc12	2	10	6	4773	4	4	2
CC(Sc1nnnn1-c1ccccc1)C(=O)Nc1ccc(Cl)cn1 (stereo not given)	31	11	-7	4190	10	5	-18
CCOc1ccc(S(=O)(=O)NCCC(=O)N2CCN(c3ncccn3)CC2)cc1	3	2.7	-19	4067	18	11	.
O=C(NNC(=O)c1cccc2ccccc12)c1ccc(Cl)c(Cl)c1	-1	14	-9	3940	0	8	.
O=[N+]([O-])c1ccc(N2CCCCC2)cc1N1CCOCC1	4	4.4	-3	2152	12	1	-1
Cc1ccc(-c2n[nH]c(=S)n2N=Cc2ccc(C)o2)cc1	-2	8.1	.	.	6	2	.
CN(c1ccc(OCC(=O)OCC(=O)c2c(N)n(C)c(=O)n(C)c2=O)cc1)S(=O)(=O)c1ccc2ccccc2c1	7	-4.2	0	3147	13	4	2
O=C(CNC(=O)c1ccco1)OCC(=O)c1ccc(Cl)cc1Cl	-1	5.1	-16	3744	-3	-3	1
O=S(=O)(c1ccc(Br)s1)N1CCN(c2ccc(F)cc2)CC1	2	3.8	-11	5267	11	7	-7
O=C(NC(=S)N1CCc2ccccc21)c1ccc(Br)o1	0	4.1	-18	4845	-10	0	9
O=C(CCc1ccc(S(=O)(=O)N2CCOCC2)cc1)NN=Cc1ccc(O)c(O)c1O	1	10	.	.	7	-3	.
CCCc1nnc(SCC(=O)N(CC)CC)n1CC1CCCO1 (stereo not given)	5	0.6	-28	4240	4	-5	-8
COc1cccc(C=NNc2nnc(C)n2N)c1O	-6	2.9	.	.	14	3	.
COC(=O)c1cccc(Nc2ccc([N+](=O)[O-])cn2)c1	-3	-3.7	-5	3388	0	6	-3
O=C(Cn1ccc2ccccc2c1=O)NCCC(=O)Nc1cccc(Cl)c1	-3	2.0	-21	3979	7	9	-2
COc1ccc(/C=C/c2nc3sc4c(c3c(=O)o2)CCC4)cc1	.	.	-37	3008	.	.	-12
O=C1CCN(Cc2ccccc2)C=C1c1ccc(Cl)cc1	-2	7.8	-12	3941	17	26	.
CC(C)C(=O)N1CCC2(CC1)Oc1ccc(Cl)cc1C(=O)C21CC(c2ccccc2)=NO1 (stereo not given)	-1	13	-12	3747	-6	-2	5
Fc1ccccc1Cn1cc(C(=S)N2CCOCC2)c2ccccc21	4	1.9	-19	4593	7	3	-4
Cc1ccc(C)c(Cn2nnc3c(=O)[nH]c(C(=O)Nc4ccc(F)cc4)nc32)c1	3	10	-9	4335	4	-1	4
Fc1ccccc1CSc1nc2ncccc2[nH]1	-2	4.2	-74	2486	8	6	-4
Cc1cc2c(=O)n(C)c(SCC(=O)Nc3ccccc3C)nc2s1	10	4.6	11	4631	5	2	3
CCOc1ccccc1-n1nnnc1SCC(=O)NC(=O)Nc1ccc2c(c1)OCCO2	5	4.7	-18	3073	-9	-3	0
CCN(CC(=O)NCc1cccs1)C(=O)c1cccc(S(=O)(=O)NCc2ccccc2)c1	.	.	10	5391	.	.	3
COc1ccc(/C=C2\SC(=O)N(CCNC(=O)CCS(=O)(=O)c3ccc(C)cc3)C2=O)cc1	-12	5.3	-42	2372	5	2	-2
Cc1ccc(NC(=O)CCS(=O)(=O)c2cccc3nonc23)c(Cl)c1	6	3.7	-25	5510	2	14	-12
COc1cc(/C=N\Nc2cc(=O)n(C)c(=O)n2C)ccc1O	.	.	-1	2246	.	.	0
COc1ccc(C)cc1-n1nnnc1SC/C(O)=C(\C#N)c1nc2ccccc2[nH]1	.	.	-3	21719*	.	.	4
Cc1ccccc1C(=O)N[C@H](C(=O)OCC(=O)NC1CC1)C(C)C	-6	-1.1	-17	3867	7	2	.
CC(Oc1cc2oc(=O)c3c(c2cc1Cl)CCC3)C(=O)NC1CC(C)(C)NC(C)(C)C1 (stereo not given)	0	-0.1	-12	4116	2	-2	-3
COc1ccc(NC(=O)N/C=C/c2ccc(Cl)cc2)cc1	-1	-2.0	-56	5044	-3	-2	-1
CC1(NC(=S)NCCO)CCS(=O)(=O)C1 (stereo not given)	5	5.4	-36	2372	3	6	1
COc1ccc(-c2noc3c2-c2nc(-c4ccccc4)sc2CC3)cc1	12	-8.2	-21	3961	4	1	3
CCOC(=O)CNC(=O)CSc1nc2cccnc2n1C1CCCCC1	-1	-0.5	-14	5088	5	12	-8
NC(=O)Cn1cnc(-c2ccccc2)c1	1	0.6	-9	3886	-3	1	0
CCC1CCCCN1CCCNC(=O)c1ccc(N2CCOCC2)c(NS(=O)(=O)c2ccc(OC)cc2)c1 (stereo not given)	0	2.0	2	6885	16	11	-8
O=C(CCNc1cccc(F)c1)c1cccc([N+](=O)[O-])c1	-2	3.4	-13	3987	-10	7	12
COc1cc(C(=O)N2CCC(NC(=O)C(Cc3ccccc3C)NC(C)=O)CC2)cc(OC)c1OC (stereo not given)	-3	-0.8	-12	21354*	-3	14	-5
S=C(NCc1ccc2[nH]c3c(c2c1)CCCC3)Nc1ccccc1	-20	-18	-12	6218	6	17	-6
COc1ccc(CNC(=O)CSc2nnc(C)s2)cc1	-1	0.9	-11	19126*	3	15	0
Clc1ccc(Cn2ncc3c(N4CCOCC4)ncnc32)cc1	1	-2.1	-23	4813	.	.	9
Cc1ccc(CCN2CC(C(=O)O)CC2=O)cc1 (stereo not given)	5	2.8	-14	9636	-2	6	1
CCN(CC)S(=O)(=O)c1ccc(C(=O)NCc2n[nH]c(=S)n2-c2ccccc2OC)cc1	2	1.2	-2	7614	-4	2	4
CCOc1ncccc1C(=O)OCC(=O)NCCc1ccc(S(N)(=O)=O)cc1	-1	3.2	-11	4166	19	37	.
Cc1cc(C)cc(N(C(C)C(=O)NCCC2=CCCCC2)S(C)(=O)=O)c1 (stereo not given)	-7	3.6	1	23149*	-1	5	5

(further entries)
SMILES	ugtP null kill	Sa RN4220 lethal	PrP 5UTR inh	Bead autofluor	Mtb hypoxia inh	Mtb hypoxia inh growth	BJeLR lethal
CC(=O)Nc1ccc(OCC(O)Cn2c3ccccc3c3ccccc32)c(C)c1 (stereo not given)	-34	0.3	-11	8314	8	14	5
Cc1ccc(Cl)cc1NC(=O)CNC(=O)N1CC(=O)Nc2ccccc21	3	1.7	-26	5573	-7	13	-1
Nc1ccc2oc3ccc(N)cc3c(=O)c2c1	-5	-6.5	-106	5283	-6	-10	-13
COc1ccc(S(=O)(=O)N2CC=C(C(=O)Nc3ccc(NC(C)=O)cc3)CC2)cc1	.	.	-19	4144	.	.	5
CN1CCN(c2ccccc2NC(=O)COc2ccc(Br)cc2)CC1	-10	10.0	0	21142*	5	14	-4
Cc1cccc2cc(CN(Cc3ccc(F)cc3)C(=O)N(C)C)c3nnnn3c12	-3	2.5	-4	6177	1	3	-1
CCCOc1ccc(CNCCCOCC)cc1OC	5	1.8	-23	4771	-8	2	8
O=C(NC(=S)Nc1cccc(CO)c1)c1ccc(-c2ccccc2)cc1	16	30	-22	2893	8	-1	2
N/C(CSc1ccc(Cl)cc1)=N\S(=O)(=O)c1ccc(Cl)cc1	-18	1.1	-11	.	2	9	-10
COc1ccccc1CN(C)C(=O)CN1CCN(S(=O)(=O)c2ccc3c(c2)OCCCO3)CC1	2	-3.8	-9	3583	-2	1	.
O=C(CCN1C(=O)C2CC=CCC2C1=O)Nc1cccc(Cl)c1 (stereo not given)	-3	-0.4	-26	5964	16	7	5
COc1cccc(CC(=O)Nc2nc3c(s2)C(=O)CC(C)(C)C3)c1	6	3.6	-29	4063	10	6	2
C=CCN1C(=O)/C(=c2\sc3nc(=O)c(Cc4ccccc4Cl)nn3c2=O)c2ccccc21	.	.	-37	3598	.	.	3
Cc1ccc(C)c(OCC(O)CN2CCc3ccccc3C2)c1C (stereo not given)	13	4.6	-27	3794	7	3	8
COc1ccc(-c2cc(C(=O)Nc3cc(Cl)ccc3OC)no2)cc1	11	3.6	-19	3197	12	11	-4
COC(=O)c1cc(S(=O)(=O)NCCCc2ccco2)c[nH]1	9	3.1	-10	4425	17	4	0
CCOC(=O)N1CCN(C(=O)C2CCC(=O)N(Cc3ccc(Cl)cc3)C2)CC1 (stereo not given)	4	3.1	-11	5099	7	-2	-7
